Bioassay records from PubChem BioAssay.
Hsc70 ATP site: Hsc70 inhibitors, probe displacement, primary screen, biochemical, fluorescence polarization (AID 568); displacement, % at 20 µM; hits with a dose series show IC50 in µM; 83,000 tested, under 10 active; Hsc70 fluorescence polarization, probe displacement; higher % means a stronger effect; strong numbers were not always called active;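 active = displacement above 50% without optical interference and an IC50 on retest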;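 also: ATPase domain with a fluorescein-tagged ATP probe; 0% = vehicle and 100% = excess ADP; read after one hour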
MT1-MMP reporter: inhibitors of MT1-MMP promoter transcription, cell-based, luciferase reporter, luminescence (AID 618) | MT1-MMP promoter luciferase reporter cells, luminescence | calls from a first round at 10 µM; hits with a dose series show EC50 in µM | 0.62% of 87,000 active;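 active = over half of the reporter light lost at 10 µM or EC50 under 50 µM; inactive = the rest and hits that failed the dose series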;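 also: actives suppress MT1-MMP promoter-driven transcription so potencies describe inhibitors; HT1080 fibrosarcoma cells; overnight exposure; toxic or luciferase-blocking compounds were not removed from the actives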
WNV protease inh: inhibitors of West Nile virus NS2B-NS3 protease | P06935 | WNV NS2B-NS3 protease, fluorogenic substrate Ex360/Em465; hits give low values | z-score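 (tested at a level between 10 and 100 µM)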 | 0.18% of 65,000 active | AID 577;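 active = z-score at -3 or under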;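 also: score is relative to mean and spread of the compound wells of a plate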
Target sequence (P06935 1371-1501 limits assumed): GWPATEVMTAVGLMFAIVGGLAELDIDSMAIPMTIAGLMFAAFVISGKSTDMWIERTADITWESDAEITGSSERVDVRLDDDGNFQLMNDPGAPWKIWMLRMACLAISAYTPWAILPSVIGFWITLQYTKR
Target sequence (P06935 1502-1679 limits assumed): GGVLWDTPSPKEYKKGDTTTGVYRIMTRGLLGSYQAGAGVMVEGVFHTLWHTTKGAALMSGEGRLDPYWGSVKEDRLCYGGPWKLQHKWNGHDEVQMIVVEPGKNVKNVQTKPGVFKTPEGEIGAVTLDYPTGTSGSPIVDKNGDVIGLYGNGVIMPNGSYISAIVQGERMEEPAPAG
Starred values were filed as active, the others as inactive; i = inactive; . = not tested or not shown.

Fields: Hsc70 ATP site, MT1-MMP reporter, WNV protease inh
- C=CCn1c(=O)c(C(=O)Nc2ccccc2OC)c(O)c2ccccc21
    -2.8%, i, -0.25
- COCCCn1cnc2c(c1=O)c1nc3ccccc3nc1n2CCc1ccccc1
    0.5%, i, 1.1
- COc1nc(C#N)nc(N(C)C)n1
    1.8%, i, -0.9
- Cc1onc(-c2ccccc2Cl)c1C(=O)Nc1ccccc1N1CCOCC1
    -1.4%, i, .
- CC(=O)c1c(C)nc2ccc(Br)cc2c1C(=O)O
    2.5%, i, 0.19
- CCn1c(COc2cccc(C)c2)nnc1SCC(=O)N1CCCC1
    0.5%, i, 0.9
- Cc1ccc(S(=O)(=O)NC(C)(C)CSc2nncn2C)cc1
    1.7%, i, .
- COc1cccc(C(=O)CN2CCC(NC(=O)NC3CCCCC3)CC2)c1
    6.2%, i, 0.13
- O=C(CN(C(=O)Cn1nnc(-c2cccs2)n1)c1ccc2c(c1)OCCO2)NCc1ccccc1
    1.5%, i, .
- Cc1nn(-c2nc3ccccc3n2Cc2ccccc2)c2c1C(=O)CC(C)(C)C2
    0.5%, i, -0.13
- Cc1ccc(N(CC(O)CN(C)C)S(=O)(=O)c2ccccc2)cc1 (stereo not given)
    5.0%, i, 0.17
- CCOC(=O)c1sc(=N)n(-c2ccc(OC)cc2)c1C
    -1.3%, i, -0.72
- CCOC(=O)c1cc(-c2ccco2)nc2c1c(C)nn2-c1ccccc1
    -14%, i, 0.56
- Cc1ccccc1NS(=O)(=O)c1cc(C(N)=O)ccc1C
    1.8%, i, 0.82
- O=C([C@H](Cc1ccccc1)NS(=O)(=O)c1ccc(Cl)cc1)N1CC[C@@]2(O)CCCC[C@H]2C1
    -3.5%, i, .
- COc1ccccc1CN1CC(C(=O)N2CCN(c3ccc(F)cc3)CC2)CC1=O (stereo not given)
    -12%, i, -0.57
- CCCCn1c(=N)n(CC(O)COc2ccc(C)cc2)c2ccccc21 (stereo not given)
    2.8%, i, -0.39
- Cc1ccc(SC(C)c2nc(-c3cccnc3)no2)cc1 (stereo not given)
    -0.6%, i, -0.61
- Cn1c(SC2CCCCC2=O)nnc1-c1ccncc1 (stereo not given)
    0.7%, i, .
- CC(C)Cn1cc(C(=O)NCCCN2CCCC2=O)c2c3ccccc3n(C)c2c1=O
    1.6%, i, 0.27
- Cn1c(=O)c2c(nc(N3CCCCCC3)n2CC(=O)c2ccccc2)n(C)c1=O
    15%, i, 0.48
- Cc1ccc(-c2nnn(CC(=O)NC3CC4CCC3C4)n2)cc1 (stereo not given)
    1.1%, i, 0.5
- COc1cccc(C(=O)N2CCN=C2SCc2cccnc2)c1OC
    0.7%, i, -0.45
- Cn1c(Cn2c(=O)sc3ccccc32)nnc1SCC(=O)NCc1ccccc1Cl
    -0.1%, i, -0.32
- CCOC(=O)C1=C(C)NC(SCC(=O)Nc2cc(C)on2)=C(C#N)C1c1cccs1 (stereo not given)
    3.9%, i, -0.16
- COc1ccc(OC(C)C(=O)NC2CC(C)(C)NC(C)(C)C2)cc1 (stereo not given)
    -0.3%, i, 0.3
- Cc1cnc(C(=O)Nc2ccc3c(c2)CCC3)cn1
    -1.9%, i, -0.37
- COc1ccc(-n2c(SCC(=O)NCC3CCCO3)nc3n[nH]c(C)c3c2=N)cc1 (stereo not given)
    -1.0%, i, -0.34
- O=C(NCCCN1CCOCC1)c1ccc2c(=O)n(CCc3ccccc3)c(=O)[nH]c2c1
    -0.4%, i, .
- O=C(COc1ccccc1)NC(Cc1c[nH]c2ccccc12)C(=O)O (stereo not given)
    9.0%, i, -1.1
- Cc1[nH]nc2c1C(c1ccccc1F)CC(=O)N2 (stereo not given)
    4.1%, i, -0.31
- CCn1cc(NC(=O)Nc2ccccc2C(=O)OC)c(C(N)=O)n1
    5.0%, i, -0.78
- COc1ccc(S(=O)(=O)N2CCC(NC(=O)Nc3ccc(C)cc3)CC2)cc1
    -0.7%, i, 0.42
- O=C(c1cccc(F)c1)N1CCN(C(=O)c2cc(-c3ccc(Cl)cc3Cl)on2)CC1
    -0.5%, i, 1.3
- COc1cc(C)c(Br)cc1S(=O)(=O)N1CCCC1
    5.0%, i, 0.72
- Cc1cc(Br)c(S(=O)(=O)n2nnc3ccccc32)cc1C
    -1.7%, i, -0.5
- Nc1c(-c2ccccc2)cnn1C1CCS(=O)(=O)C1 (stereo not given)
    2.7%, i, .
- CCCCCc1nnc(NC(=O)C2CCCO2)s1 (stereo not given)
    -0.9%, i, -0.38
- O=C(Cn1ncc2c(=O)oc3ccccc3c21)NCC1COc2ccccc2O1 (stereo not given)
    1.5%, i, -0.36
- COc1ccc(CSc2nc(C)cc(=O)[nH]2)cc1
    7.2%, i, -1.6
- COC(=O)c1cc(C(=O)OC)cc(S(=O)(=O)Nc2ccc(Cl)c(N)c2)c1
    1.0%, i, -0.46
- CN(C(=O)CSc1ncccc1C(=O)O)c1ccccc1
    -4.0%, i, 0.41
- O=C(Cn1nnc(-c2cccc(C(F)(F)F)c2)n1)NC(=O)NCc1ccco1
    -5.7%, i, 0.3
- COc1ccc(C2/C(=C(\O)c3cccc(OC)c3)C(=O)C(=O)N2c2ccccn2)cc1 (stereo not given)
    6.9%, i, .
- CN(C)c1cc(-c2ccccc2)nc(N)n1
    3.5%, i, 1.3
- COc1cccc(N2CCN(C(=O)CCn3c(=S)[nH]c4cc5c(cc4c3=O)OCO5)CC2)c1
    -2.0%, i, -0.77
- COCCn1c(C)cc(C(=O)CSc2nnc3scc(-c4ccc(Cl)cc4)n23)c1C
    -1.6%, i, -0.13
- CCCc1nc(N)nc2c1C(=O)CC(C)(C)C2
    -6.1%, i, -0.44
- Cn1c(CN2CCCC2)nc2cc(NS(=O)(=O)c3ccc(Cl)cc3)ccc21
    -5.4%, i, .
- CCOC(=O)c1c(C)[nH]c(C(=O)CSc2nnc(CC(C)c3ccccc3)o2)c1C (stereo not given)
    -23%, i, 0.85
- O=C(Nc1ccc2c(c1)OCO2)C1CC(c2ccc(F)cc2)=NO1 (stereo not given)
    1.1%, i, .
- Brc1cccc(-c2nnc3n2CCCCC3)c1
    -3.4%, i, -0.25
- CCC(=O)Nc1ccc(-c2nn3c(C)nnc3s2)cc1C
    3.1%, i, 1.6
- CC1CCCCN1S(=O)(=O)c1ccc2c(c1)CCN2C(=O)CCC(=O)O (stereo not given)
    0.5%, i, 1
- CC(=O)Nc1cn(C(C)=O)c(C)n1
    -4.2%, i, 0.65
- Cc1ccc(/C(O)=C2\C(=O)C(=O)N(CC(C)O)C2c2ccc(N(C)C)cc2)cc1 (stereo not given)
    1.0%, i, 1.2
- CCOc1cccc(CNn2cnnc2)c1OCc1ccccc1
    -1.2%, i, .
- Cc1nn(C(C)c2n[nH]c(=S)n2-c2ccc(F)cc2)c(C)c1[N+](=O)[O-] (stereo not given)
    4.4%, i, .
- CCOc1ccc(-n2c(Cc3cc(=O)[nH]c(=O)[nH]3)nnc2SCC(N)=O)cc1
    3.6%, i, 1.2
- COc1cc(C(=O)NCCC(=O)NC2CCCCCCC2)cc(OC)c1OC
    4.0%, i, 1.2

(further entries)
Fields: Hsc70 ATP site, MT1-MMP reporter, WNV protease inh
- CNC(=O)NC(=O)CSc1nnc(-c2ccco2)n1Cc1ccccc1
    0.7%, i, .
- CCOC(=O)Nc1ccc2c(c1)Nc1ccccc1S2
    5.0%, i, -0.63
- O=C(Nc1ncnc2sc3c(c12)CCC3)c1ccco1
    1.2%, i, -0.38
- CCN(CC)C(=O)c1ccc(COc2ccccc2Br)o1
    -0.4%, i, -0.28
- O=S(=O)(NCC1CCCO1)c1ccc2c(c1)OCCO2 (stereo not given)
    5.1%, i, -1.7
- Cc1ccc(-n2c(Cc3cccs3)nnc2SCC(=O)Nc2ccc(F)c(F)c2)cc1
    0.7%, i, .
- O=C(NCc1ccc2c(c1)OCO2)C1CC(=O)N(c2ccc(F)cc2)C1 (stereo not given)
    4.6%, i, .
- COc1ccc(C/C(=N\O)c2ccc(OC)cc2)cc1
    1.1%, i, .
- O=c1[nH]c2cc3c(cc2cc1C(c1nnnn1CC1CCCO1)N1CCCCCC1)OCCO3 (stereo not given)
    -0.6%, i, .
- Cc1cc(C)n2nc(SCC(=O)c3ccccc3)nc2n1
    -2.3%, i, -0.39
- CCOC(=O)N1CCC(NC(=O)CN2C(=O)C(CC)Oc3ccc(C)cc32)CC1 (stereo not given)
    6.1%, i, 0.05
- COc1ccc(C2c3c(n[nH]c3C)CC(C)(O)C2C(C)=O)cc1OC (stereo not given)
    -5.0%, i, -0.49
- CCOC(=O)N1CCN(C(=O)CN(c2ccc(OCc3ccccc3)cc2)S(C)(=O)=O)CC1
    2.2%, i, 0.8
- Cc1ccc(-c2cn3cccnc3n2)cc1NC(=O)c1ccc(Br)o1
    -0.1%, i, 2.5
- O=C(Nc1nc(-c2ccc(Cl)s2)cs1)c1ccccc1
    -0.5%, i, .

Quoted at random: seven compounds from above.
Fields: Hsc70 ATP site, MT1-MMP reporter, WNV protease inh
- Cn1c(=O)c2c(nc(N3CCCCCC3)n2CC(=O)c2ccccc2)n(C)c1=O
    15%, i, 0.48
- COc1cccc(C(=O)CN2CCC(NC(=O)NC3CCCCC3)CC2)c1
    6.2%, i, 0.13
- Cc1ccc(-n2c(Cc3cccs3)nnc2SCC(=O)Nc2ccc(F)c(F)c2)cc1
    0.7%, i, .
- C=CCn1c(=O)c(C(=O)Nc2ccccc2OC)c(O)c2ccccc21
    -2.8%, i, -0.25
- O=S(=O)(NCC1CCCO1)c1ccc2c(c1)OCCO2 (stereo not given)
    5.1%, i, -1.7
- COc1ccc(C/C(=N\O)c2ccc(OC)cc2)cc1
    1.1%, i, .
- CC(C)Cn1cc(C(=O)NCCCN2CCCC2=O)c2c3ccccc3n(C)c2c1=O
    1.6%, i, 0.27

(list continues)
Fields: Hsc70 ATP site, MT1-MMP reporter, WNV protease inh
- COC(=O)CCC(=O)CN
    2.0%, i, 0.75
- CC(NC(=O)c1cc2ccccc2o1)C(=O)O (stereo not given)
    -3.0%, i, -0.02
- N#CC1=C(SCc2ccccc2)NC(=O)CC1c1ccco1 (stereo not given)
    -5.4%, i, -0.02
- CC1(C)CC(=O)c2c(oc3cc(O)c(O)cc23)C1
    1.1%, i, .
- Cc1ccc(OCc2nnc(SCC(=O)Nc3ccc4c(c3)OCO4)n2C)cc1
    -1.7%, i, -0.38
- O=c1c(Sc2ccccc2)c(C(F)(F)F)[nH]n1-c1ccccc1
    5.0%, i, .
- O=S(=O)(O)c1nc2ccccc2n1Cc1ccc(Cl)cc1
    -0.2%, i, -1.3
- COc1ccccc1N1C(=O)N(C(C)=O)C2C1Nc1ccccc1N2C (stereo not given)
    -1.4%, i, 0.24
- Cc1ccc(-c2nnc(SCC(C)C)n2C)cc1
    3.6%, i, .
- CCOCCCN1C(=O)CN(C2CCCCC2)C(=O)C1c1ccc(OCC)c(OC)c1 (stereo not given)
    0.8%, i, 1.6
- O=C(CC12CC3CC(CC(C3)C1)C2)NCCN1CCOCC1
    -3.0%, i, 0.18
- O=C(O)CCSc1nc2ccccc2n1CCOc1ccccc1
    -3.1%, i, 0.67
- O=C1CCCC2=C1C1(O)C(=O)c3ccccc3C1(O)O2 (stereo not given)
    -1.9%, i, -0.12
- CCOC(=O)C1CCN(C(=O)COc2ccc(S(=O)(=O)NC(C)(C)C)cc2)CC1
    4.0%, i, -0.5
- CN(CC(=O)N1CCN(c2cccc(Cl)c2)CC1)S(=O)(=O)c1cccs1
    0.6%, i, .
- O=C1CCCc2sccc2N1
    6.8%, i, 1.7
- O=C(CSc1nnc(Cc2cc(=O)[nH]c(=O)[nH]2)n1-c1ccccc1)N1CCCCC1
    3.2%, i, -0.3
- CCc1nnc(NC(=O)CSc2nnc(C3CCCCC3)n2-c2ccccc2)s1
    0.2%, i, 0.17
- Cc1ccc(-n2c(SCC(=O)Nc3ccc4c(c3)OCCO4)nnc2-c2ccco2)cc1
    2.0%, i, 0.63
- CS(=O)(=O)N(Cc1ccc(F)cc1)Cc1nc2ccccc2c(=O)[nH]1
    -4.3%, i, 0.86
- O=C(O)CC1(CC(=O)Nc2ccc3ccccc3c2)CCCCC1
    -2.3%, i, .
- CC1(C)Cc2ccccc2C(Nn2cnnc2)=N1
    1.6%, i, -0.02
- CC(C)(C)NCC(O)COc1ccccc1C(=O)CCc1ccccc1 (stereo not given)
    3.9%, i, .
- COc1ccc(-c2noc(CN(C)S(=O)(=O)c3ccccc3)n2)cc1OC
    1.4%, i, 0.68
- COc1ccccc1NCN1C(=O)CCC1=O
    1.6%, i, -0.24
- O=C(O)c1cccc(CSc2nnc(COc3ccccc3)o2)c1
    5.7%, i, 2.4
- O=C(Nc1nc2n(n1)C(c1ccc(Cl)cc1)CC(c1ccc(Cl)cc1)N2)c1ccco1 (stereo not given)
    -4.8%, i, 0.76
- COc1ccccc1-c1ccc(=O)n(CC(=O)Nc2ccc(C(=O)N3CCCC3)cc2)n1
    -2.7%, i, -0.2
- COc1cccc(CNS(=O)(=O)c2cccc(S(=O)(=O)N3CCOCC3)c2)c1
    1.3%, i, .
- COCCn1cnc2cc(C)c(C)cc21
    1.6%, i, 0.49
- CCOC(=O)c1ccc(N2C(=O)C(O)=C(C(C)=O)C2c2ccccc2)cc1 (stereo not given)
    -5.1%, i, .
